Bioassay records: PubChem BioAssay, National Center for Advancing Translational Sciences (NCATS)
Marburg entry inh = qHTS for inhibitors of binding or entry into cells for Marburg Virus | Marburg virus pseudotyped entry inhibition, cell reporter; control for the full effect not named in the record; about a third of the inactives were read at about 46 µM | Potency, µM (series often up to 37.8 µM), inactives show at the highest dose activity change, negative = inhibition, hits mostly inhibitors | 300,000 tested, 1.8% active; active = well fitted inhibition curve with a large enough effect; inconclusive = small, poorly fitted or top-dose-only effect, or effect the other way; inactive = flat fitted curve, though single readings scatter; tested in HEK293 cells; about a fifth of its hits are not listed in these tables; further: luciferase read-out
StopGo reporter = High Throughput Screening for Foot and Mouth Disease Virus Antivirals; human cells with a luciferase reporter of 2A StopGo recoding; control for the full effect not named in the record; Potency, µM (top dose mostly 57.9 µM), for the others: top-dose signal change, negative = less light; 410,000 tested, 1.2% active; AID 1159524, 2015; active = well fitted falling curve with a large enough effect; inconclusive = small, poorly fitted or top-dose-only effect; inactive = no such curve, though single readings can be large or run the other way; tested in HEK293T cells; further: nearly all actives have a fitted effect of over 45% in size; luciferase light after 4 h
RE007 growth inh = qHTS Assay for Inhibitors of the HIV-1 protein Vpr | S. pombe RE007 Vpr strain, BacTiter-Glo ATP luminescence, 24 h; control for the full effect not named in the record | Potency, µM (highest dose often 92.2 µM), without a hit: at the top dose activity change, negative = less growth | AID 651644, 2012 | 360,000 tested, 0.21% active; active = well fitted falling curve with a large enough effect; inconclusive = small, poorly fitted or top-dose-only effect; inactive = no such curve, though single readings can be large or run the other way;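 further: nearly all actives have a fitted effect of over 50% in size; the assay follows cell death caused by Vpr and the record does not say whether a fall means rescue or toxicity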
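Fission yeast RE007 carrying one integrated HIV-1 vpr copy, seeded at OD 0.01 in PMG+AL medium with 23 nL pinned compound. Grown 24 h at 30 degrees; viability read by BacTiter-Glo luminescence after 5 min.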
Numbers without * were called inactive; & = joins results of further samples; [ ] = remark or other dose. On the % scale 0 is the no-effect control and ±100 the full control effect; potency means the concentration at half of the fitted maximal effect.

How did COc1ccccc1N(C)c1cc2c(c3c1ccn3C)C1CCC2C1 (stereo not drawn) do in these assays?
Marburg entry inh: inconclusive; StopGo reporter: -10%; RE007 growth inh: -8%

Results for CN(C)CCN(C)C1CN(Cc2ccc(F)cc2)S(=O)(=O)C1 (stereo not drawn) ?
Marburg entry inh: inconclusive; StopGo reporter: -24%; RE007 growth inh: 11%

Results for COC(=O)CCCC1=CC2=CC(=O)C(C)(OC(=O)c3cccs3)C(=O)C2=CN1c1ccccc1 (stereo not drawn) ?
Marburg entry inh: -2%&-2%&-2%[14.2 µM]; StopGo reporter: -19%; RE007 growth inh: -10%

Results for Cc1ccc([C@H]2C[C@@H](O)[C@H](n3cc(C4CC4)nn3)CN2CC2CCCCC2)cc1 ?
Marburg entry inh: inconclusive; StopGo reporter: inconclusive; RE007 growth inh: -12%

How did Cn1ccc2c(N3CCC3)cc3c(c21)C1CCC3O1 (stereo not drawn) do in these assays?
Marburg entry inh: inconclusive; StopGo reporter: -14%; RE007 growth inh: -26%

Results for Cc1ccc(C(C)C)cc1-n1nnc(-c2cccc(Cc3ccc4ccccc4c3)c2)c1C(C)O (stereo not drawn) ?
Marburg entry inh: inconclusive; StopGo reporter: inconclusive; RE007 growth inh: -11%

Results for CN(c1ccc([N+](=O)[O-])cc1)c1cc2c(c3c1ccn3C)C1CCC2C1 (stereo not drawn) ?
Marburg entry inh: inconclusive; StopGo reporter: -21%; RE007 growth inh: 9%

How did CC(C)CC1C(=O)N(Cc2cn(CCC3OCCO3)nn2)CCS(=O)(=O)N1Cc1ccc(-c2ccncc2)cc1 (stereo not drawn) do in these assays?
Marburg entry inh: inconclusive; StopGo reporter: inconclusive; RE007 growth inh: 7%

What do the screens show for `O=c1cc(CN2CCCCC2)c2ccccc2o1`?
Marburg entry inh: inconclusive; StopGo reporter: -13%; RE007 growth inh: -8%

Results for COc1ccc(-c2ccc(CN3C(C(C)C)C(=O)N(Cc4cn(CC5CCCCC5)nn4)CCS3(=O)=O)cc2)cc1OC (stereo not drawn) ?
Marburg entry inh: inconclusive; StopGo reporter: -14%; RE007 growth inh: 8%

What do the screens show for `CN(C(=O)c1cccc(NC(=O)Cc2cccc(NC(=O)C3CCCN(C(=O)C4CCCCC4)C3)c2)c1)C1CCC1` (stereo not drawn)?
Marburg entry inh: -2%; StopGo reporter: -20%; RE007 growth inh: 22%

What do the screens show for `COc1ccc([C@H]2C[C@H](O)[C@@H](n3cc(COC(=O)c4ccccc4)nn3)CN2C(=O)C2CCCCC2)cc1`?
Marburg entry inh: inconclusive; StopGo reporter: -16%; RE007 growth inh: -23%

What do the screens show for `CC1C(=O)N(Cc2cn(CC3CCCCC3)nn2)CCS(=O)(=O)N1Cc1ccc(-c2cccc(N(C)C)c2)cc1` (stereo not drawn)?
Marburg entry inh: inconclusive; StopGo reporter: inconclusive; RE007 growth inh: 10%

What do the screens show for `Cc1ccc(CN2CC(N3CCN(CCO)CC3)CS2(=O)=O)cc1` (stereo not drawn)?
Marburg entry inh: inconclusive; StopGo reporter: -16%; RE007 growth inh: -7%

Results for CCN1C(=O)N(C)[C@@H](c2ccccc2)C(C(C)=O)=C1C ?
Marburg entry inh: 13%&13%[14.2 µM]; StopGo reporter: -13%; RE007 growth inh: -12%

Results for O=S1(=O)C[C@@H](N2CCC(Cc3ccccc3)CC2)[C@H](COCc2ccccc2)N1 ?
Marburg entry inh: inconclusive; StopGo reporter: -9%; RE007 growth inh: 13%

What do the screens show for `COc1ccc(NC(=O)C[C@H]2C(=O)N(c3ccccc3)C[C@@H]2C)cc1`?
Marburg entry inh: inconclusive; StopGo reporter: -5%; RE007 growth inh: -9%

Results for O=C1c2ccccc2S(=O)(=O)c2cc(C(=O)N3CCN(c4ncccn4)CC3)ccc21 ?
Marburg entry inh: -2%; StopGo reporter: -11%; RE007 growth inh: 8%

How did CCN1C(=O)N[C@@H](c2cccs2)C(C(=O)OC)=C1C do in these assays?
Marburg entry inh: 1%&1%[14.2 µM]; StopGo reporter: -15%; RE007 growth inh: 9%

How did CCCCN1CC(COCc2ccccc2)Oc2cccc(Oc3cc(C)c(C)c(C)c3)c2S1(=O)=O (stereo not drawn) do in these assays?
Marburg entry inh: inconclusive; StopGo reporter: 1%; RE007 growth inh: 5%

How did COc1cccc(CN(CCC(C)C)S(=O)(=O)c2cc(Br)ccc2Br)c1 do in these assays?
Marburg entry inh: inconclusive; StopGo reporter: inconclusive; RE007 growth inh: -9%

How did CC(=O)c1cccc(-c2ccc(CN3C(CC(C)C)C(=O)N(Cc4cn(CC5CCCCC5)nn4)CCS3(=O)=O)cc2)c1 (stereo not drawn) do in these assays?
Marburg entry inh: 0%; StopGo reporter: -21%; RE007 growth inh: -5%

How did O=S1(=O)C[C@H](N2CCN(CC3CC3)CC2)[C@@H](COCc2ccccc2)N1 do in these assays?
Marburg entry inh: inconclusive; StopGo reporter: -22%; RE007 growth inh: -14%

Results for C[C@H](CO)N1C[C@H](C)[C@@H](CN(C)C(=O)NC2CCCCC2)Oc2ccc(NC(=O)C3CC3)cc2C1=O ?
Marburg entry inh: 0%; StopGo reporter: -11%; RE007 growth inh: -3%

How did O=C(c1ccco1)N1CCN(C2CN(C3CCCC3)S(=O)(=O)C2)CC1 (stereo not drawn) do in these assays?
Marburg entry inh: inconclusive; StopGo reporter: -3%; RE007 growth inh: 3%

How did COc1ccc([C@H]2C[C@H](O)[C@@H](n3cc(C4CC4)nn3)CN2Cc2cccs2)cc1 do in these assays?
Marburg entry inh: inconclusive; StopGo reporter: -11%; RE007 growth inh: 11%

What do the screens show for `Cn1ccc2c(-c3ccccc3F)cc3c(c21)C1CCC3C1` (stereo not drawn)?
Marburg entry inh: inconclusive; StopGo reporter: -16%; RE007 growth inh: -5%

How did COc1ccc(C(=O)N[C@H](C(=O)OCCCOC(=O)[C@@H](NC(=O)c2ccc(OC)cc2)C(C)C)C(C)C)cc1 do in these assays?
Marburg entry inh: 3%; StopGo reporter: inconclusive; RE007 growth inh: -10%

How did CC(=O)[C@@H]1[C@@H](C)N(Cc2ccccc2)C(=O)N[C@H]1c1ccccc1 do in these assays?
Marburg entry inh: -26%[14.2 µM]; StopGo reporter: 2%; RE007 growth inh: -1%

How did CN(c1cc2c(c3c1ccn3C)C1CCC2O1)C1CCCCC1 (stereo not drawn) do in these assays?
Marburg entry inh: inconclusive; StopGo reporter: -10%; RE007 growth inh: -27%

What do the screens show for `COC/C=C/C1=CC2=CC(=O)C(C)(OC(=O)c3cnc4ccccc4n3)C(=O)C2=CN1CC(C)C` (stereo not drawn)?
Marburg entry inh: inconclusive; StopGo reporter: -8%; RE007 growth inh: -4%

What do the screens show for `CCCN(CCC)Cc1cc(=O)oc2cc(C)c(C)cc12`?
Marburg entry inh: inconclusive; StopGo reporter: -13%; RE007 growth inh: -22%

How did CCOC(=O)CN1C(=O)N[C@@H](c2cccc(C(F)(F)F)c2)C(C(C)=O)=C1C do in these assays?
Marburg entry inh: inconclusive; StopGo reporter: -15%; RE007 growth inh: 0%

Results for CCOC(=O)CN1C(=O)N[C@@H](c2ccccc2)[C@H](C(C)=O)[C@H]1C ?
Marburg entry inh: 2%&2%&2%[14.2 µM]; StopGo reporter: -1%; RE007 growth inh: 4%

How did COc1ccc(-c2ccc(CN3C(C(C)C)C(=O)N(Cc4cn(CCC5OCCCO5)nn4)CCS3(=O)=O)cc2)cn1 (stereo not drawn) do in these assays?
Marburg entry inh: inconclusive; StopGo reporter: -7%; RE007 growth inh: -3%

What do the screens show for `CCN1C(=O)N[C@@H](CCc2ccccc2)[C@H](C(C)=O)[C@H]1C`?
Marburg entry inh: inconclusive; StopGo reporter: -11%; RE007 growth inh: 11%

How did COc1ccc([C@H]2C[C@@H](O)[C@H](n3cc(-c4ccc(F)cc4)nn3)CN2CC2CCCCC2)cc1 do in these assays?
Marburg entry inh: inconclusive; StopGo reporter: -28%; RE007 growth inh: 3%

Results for CCN(CC)CCCN1C=C2C(=O)C(C)(OC(=O)CCC(=O)OC)C(=O)C(Br)=C2C=C1c1ccc(OC)cc1 (stereo not drawn) ?
Marburg entry inh: 0%; StopGo reporter: -20%; RE007 growth inh: -10%

Results for CC(C)(C)OC(=O)N1CCCC(C(=O)Nc2ccc(C(=O)NCCc3ccccc3)cc2)C1 (stereo not drawn) ?
Marburg entry inh: inconclusive; StopGo reporter: 0%; RE007 growth inh: -4%

By substructure: those above with an aryl methoxy group
How did COc1ccccc1N(C)c1cc2c(c3c1ccn3C)C1CCC2C1 (stereo not drawn) do in these assays?
Marburg entry inh: inconclusive; StopGo reporter: -10%; RE007 growth inh: -8%

Results for COc1ccc(-c2ccc(CN3C(C(C)C)C(=O)N(Cc4cn(CC5CCCCC5)nn4)CCS3(=O)=O)cc2)cc1OC (stereo not drawn) ?
Marburg entry inh: inconclusive; StopGo reporter: -14%; RE007 growth inh: 8%

What do the screens show for `COc1ccc([C@H]2C[C@H](O)[C@@H](n3cc(COC(=O)c4ccccc4)nn3)CN2C(=O)C2CCCCC2)cc1`?
Marburg entry inh: inconclusive; StopGo reporter: -16%; RE007 growth inh: -23%

What do the screens show for `COc1ccc(NC(=O)C[C@H]2C(=O)N(c3ccccc3)C[C@@H]2C)cc1`?
Marburg entry inh: inconclusive; StopGo reporter: -5%; RE007 growth inh: -9%

How did COc1cccc(CN(CCC(C)C)S(=O)(=O)c2cc(Br)ccc2Br)c1 do in these assays?
Marburg entry inh: inconclusive; StopGo reporter: inconclusive; RE007 growth inh: -9%

How did COc1ccc([C@H]2C[C@H](O)[C@@H](n3cc(C4CC4)nn3)CN2Cc2cccs2)cc1 do in these assays?
Marburg entry inh: inconclusive; StopGo reporter: -11%; RE007 growth inh: 11%

How did COc1ccc(C(=O)N[C@H](C(=O)OCCCOC(=O)[C@@H](NC(=O)c2ccc(OC)cc2)C(C)C)C(C)C)cc1 do in these assays?
Marburg entry inh: 3%; StopGo reporter: inconclusive; RE007 growth inh: -10%

How did COc1ccc(-c2ccc(CN3C(C(C)C)C(=O)N(Cc4cn(CCC5OCCCO5)nn4)CCS3(=O)=O)cc2)cn1 (stereo not drawn) do in these assays?
Marburg entry inh: inconclusive; StopGo reporter: -7%; RE007 growth inh: -3%

How did COc1ccc([C@H]2C[C@@H](O)[C@H](n3cc(-c4ccc(F)cc4)nn3)CN2CC2CCCCC2)cc1 do in these assays?
Marburg entry inh: inconclusive; StopGo reporter: -28%; RE007 growth inh: 3%

Results for CCN(CC)CCCN1C=C2C(=O)C(C)(OC(=O)CCC(=O)OC)C(=O)C(Br)=C2C=C1c1ccc(OC)cc1 (stereo not drawn) ?
Marburg entry inh: 0%; StopGo reporter: -20%; RE007 growth inh: -10%

The list is partial; count on the stated rates, not on these rows.
